Source: PubChem BioAssay
GALR2 agonist = GALR2 (human) receptor agonism. GALR2-expressing cells, agonist activation read-out. 140,000 tested, 0.48% active. activation, %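 (tested at 5 µM)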. AID 803;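 active means above mean plus 3 SD of all compounds, about 5% in these data, not always enough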;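 further: 0% = vehicle buffer wells and 100% = reference agonist at full effect; tested in CHO reporter cells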
Target sequence (O43603 whole entry, looked up): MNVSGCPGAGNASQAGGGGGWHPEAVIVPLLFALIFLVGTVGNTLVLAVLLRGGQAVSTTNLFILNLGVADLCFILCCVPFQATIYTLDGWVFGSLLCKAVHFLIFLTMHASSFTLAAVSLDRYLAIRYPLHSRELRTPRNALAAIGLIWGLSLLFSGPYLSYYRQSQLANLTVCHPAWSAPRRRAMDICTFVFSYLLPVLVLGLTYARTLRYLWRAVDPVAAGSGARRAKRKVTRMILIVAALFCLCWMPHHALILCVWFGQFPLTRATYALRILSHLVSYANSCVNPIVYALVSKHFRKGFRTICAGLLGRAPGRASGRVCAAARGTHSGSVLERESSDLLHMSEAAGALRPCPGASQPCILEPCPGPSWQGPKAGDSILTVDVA
RGS16-Gao = regulators of human RGS16-Galphao interaction; O15492+P09471; 220,000 tested, 0.38% active; binding response (% of control), % at 10 µM; bead-based flow cytometry RGS16-Galphao binding, fluorescence; actives lie on both sides; AID 1441;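 active means below 25% or above 175%, edge rows of some plates excepted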;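 further: Galphao activated by GDP with aluminum fluoride before binding; 100% = wells without compound and 0% = beads without RGS; some results beyond the cut were filed as inactive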
Target sequence (O15492 whole entry, looked up): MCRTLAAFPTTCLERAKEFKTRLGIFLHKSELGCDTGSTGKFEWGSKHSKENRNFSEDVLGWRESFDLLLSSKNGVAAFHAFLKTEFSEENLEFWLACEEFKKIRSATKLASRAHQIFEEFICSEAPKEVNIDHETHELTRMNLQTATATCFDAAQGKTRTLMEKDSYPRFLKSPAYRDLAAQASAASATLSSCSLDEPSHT
Target sequence (P09471 whole entry, looked up): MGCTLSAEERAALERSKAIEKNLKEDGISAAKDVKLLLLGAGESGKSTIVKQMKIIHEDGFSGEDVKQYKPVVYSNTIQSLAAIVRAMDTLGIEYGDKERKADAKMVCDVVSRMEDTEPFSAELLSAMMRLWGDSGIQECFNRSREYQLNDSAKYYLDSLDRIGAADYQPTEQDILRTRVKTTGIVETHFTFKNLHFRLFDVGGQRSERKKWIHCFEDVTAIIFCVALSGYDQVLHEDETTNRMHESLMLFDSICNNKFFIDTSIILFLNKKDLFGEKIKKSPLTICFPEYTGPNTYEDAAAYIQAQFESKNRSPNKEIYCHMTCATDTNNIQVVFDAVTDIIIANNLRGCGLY
HSV replic up = increases HSV replication in cells. HSV replication augmentation in cells, fold increase. maximum fold increase. 220,000 tested, 0.005% active. AID 1956;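 active means peak rise of 1.5-fold or more in the series; tested in PC3 cells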;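 further: first round at 10 µM; read as green reporter fluorescence; hits show the peak of a series up to 25 µM; 1 = signal of infected wells without compound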
PKD1 inh = inhibitors of human PKD1 kinase; 200,000 tested, 0.056% active; AID 797; Q15139; PKD1 kinase fluorescence polarization assay; inhibition, %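 (about 10 µM by stock and volumes)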;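 active means inhibition of 50% or more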;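 further: controls were vehicle for no effect and a reference inhibitor for full effect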
INS promoter inh = TRM-6 insulin promoter activity inhibition. TRM-6 cells (human fetal islet line), insulin promoter-eGFP reporter, imaging; reporter expression induced with tamoxifen. 130,000 tested, 0.9% active. inhibition, % at 2 µM. AID 1273;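 active means inhibition above the mean plus 3 SD, with well images judged a real hit on visual review, cut at about 60% in these data, passing the limit was not always enough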
INS promoter inh cell count = recorded beside INS promoter inh, whose call it bears; normalized cell count, %; measured here: cell count, toxicity; reference of the scale not given here;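 cells exposed to compound for 48 h; stained nuclei by imaging scaled within each plate; lower means fewer cells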
HSV replic up primary fold = further read-out of HSV replic up, marked with its call; fold increase; compound at 10 µM; measured here: primary screen fold increase 10 uM; tested in PC3 cells;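 GFP signal in the first replicate; 1 = infected wells without compound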
Numbers without * were called inactive; i = inactive; . = no result given.

Order of values: GALR2 agonist, RGS16-Gao, HSV replic up, HSV replic up primary fold, PKD1 inh, INS promoter inh, INS promoter inh cell count
COc1ccccc1CNC(=O)COC(=O)c1ccc(S(=O)(=O)N2CCCC2)cc1
→ -0.6, 103.5, i, 1.11, 0.2, ., .
COc1ccc2nc(NC(=O)Cn3cnc4ccccc4c3=O)sc2c1
→ ., 97.3, i, 1.01, ., ., .
COc1ccc(NC(=O)c2[nH]ncc2[N+](=O)[O-])cc1
→ ., 111.5, i, 0.82, -6.7, 52.4, 183.2
Cc1nn(-c2ccccc2)c(C)c1C(=O)OCC(=O)NC(=O)NC1CCCC1
→ -1.2, 91.3, i, 1, 0.8, 35.3, 94.8
CCn1c(Cc2ccccc2)nnc1SCC(=O)Nc1cc(C)on1
→ -0.2, 102.2, i, 0.94, 4.4, 30.0, 88.3
Cc1cc(NS(=O)(=O)c2ccc(NC(=O)CCc3ccccc3)cc2)no1
→ -1.8, 28.3, i, 1.03, -11.4, -32.4, 46.3
COc1cc2nc(=S)n(CCCN3CCOCC3)c(N)c2cc1OC
→ ., 100.3, i, 1.08, -1.8, -54.5, 81.1
Cc1ccc(Oc2ncnc(N)c2[N+](=O)[O-])cc1
→ ., 104.8, i, 0.83, -6.0, 55.6, 147.6
COc1ccc(N2C(=O)NC3CC2(C)Oc2ccc(Cl)cc23)cc1OC (configuration not stated)
→ -3.0, 63.0, ., ., 4.0, ., .
CCOc1ccc(NC(=O)CCC(=O)OC)cc1
→ -2.0, 100.5, i, 0.91, -8.1, -80.7, 241.9
Cc1onc(-c2ccccc2Cl)c1C(=O)N1CCc2ccccc21
→ -0.7, 105.0, i, 0.8, 2.6, 16.1, 174.3
Cn1nnnc1SCCNCC#Cc1ccccc1
→ -4.6, 81.8, i, 1.11, -0.7, 9.1, 97.8
COc1ccccc1CNC(=O)c1ccc(OC(F)F)c(OC)c1
→ -1.1, 96.7, i, 0.91, -4.3, ., .
COc1cc(-c2nnc(SCC(=O)c3ccccc3)o2)cc(OC)c1OC
→ -0.6, 104.5, i, 0.86, 0.0, ., .
CCc1ccc(S(=O)(=O)NCc2ccc(N3CCN(C)CC3)cc2)cc1
→ ., 100.4, i, 0.95, ., ., .
CC(c1ccccc1C(O)c1ccccc1)N(C)C (configuration not stated)
→ -2.6, 94.9, i, 0.88, -4.7, ., .
COCCN1Cc2cccc(C(=O)NC3CCCCCC3)c2C1=O
→ -0.6, 103.2, i, 0.91, -13.9, 16.7, 139.2
Cc1sc(NC(=O)c2ccco2)c(C(Nc2ccccn2)c2ccccc2)c1C (configuration not stated)
→ -0.6, 101.6, i, 1.03, 0.5, ., .
Cn1cnnc1Sc1ccc(C(=O)OCC(=O)Nc2cc(Cl)cc(Cl)c2)cc1[N+](=O)[O-]
→ -0.9, 95.5, i, 1.01, 7.1, ., .
CN1CC=C2C(C#N)=C(N)C(C#N)(C#N)C(c3cccc(Cl)c3Cl)C2C1 (configuration not stated)
→ -1.0, 99.7, i, 0.99, 6.2, -212.5, 100.3

Some of the entries above, reformatted.
mol	GALR2 agonist	RGS16-Gao	HSV replic up	HSV replic up primary fold	PKD1 inh	INS promoter inh	INS promoter inh cell count
CCc1ccc(S(=O)(=O)NCc2ccc(N3CCN(C)CC3)cc2)cc1	.	100.4	i	0.95	.	.	.
CCOc1ccc(NC(=O)CCC(=O)OC)cc1	-2.0	100.5	i	0.91	-8.1	-80.7	241.9
COc1ccc2nc(NC(=O)Cn3cnc4ccccc4c3=O)sc2c1	.	97.3	i	1.01	.	.	.
CC(c1ccccc1C(O)c1ccccc1)N(C)C (configuration not stated)	-2.6	94.9	i	0.88	-4.7	.	.
Cc1onc(-c2ccccc2Cl)c1C(=O)N1CCc2ccccc21	-0.7	105.0	i	0.8	2.6	16.1	174.3

(more compounds)
Order of values: GALR2 agonist, RGS16-Gao, HSV replic up, HSV replic up primary fold, PKD1 inh, INS promoter inh, INS promoter inh cell count
O=C(NCc1ccccc1)C1=C[C@H](c2ccc3c(c2)OCO3)C[C@H](OCCCCO)O1
→ ., 93.3, i, 0.77, -1.9, ., .
O=C(NC1CCCc2ccccc21)C1CCCO1 (configuration not stated)
→ -0.6, 98.7, i, 0.87, -0.4, 15.6, 104.1
Cc1ccc(OCc2nn3c(-c4ccco4)nnc3s2)cc1
→ 0.1, 88.7, i, 1, -8.4, 31.2, 112.9
O=C(COC(=O)CCS(=O)(=O)c1ccc(Cl)cc1)NCCc1ccccc1
→ -1.7, 106.3, i, 0.98, 1.5, ., .
CCN(CC)S(=O)(=O)c1cccc(NC(=O)COc2ncnc3sccc23)c1
→ ., 104.1, i, 1.02, -6.8, ., .
COCCCN1C(=O)C(=O)/C(=C(/O)c2ccc3c(c2)OCCO3)C1c1ccc(C(=O)OC)cc1 (configuration not stated)
→ -0.5, 103.4, i, 1.04, -12.2, 41.2, 105.2
C=CCN1C(=O)C(CC(=O)Nc2ccc(OC)cc2)SC1=Nc1ccc(S(N)(=O)=O)cc1 (configuration not stated)
→ ., 97.6, i, 0.91, -4.1, ., .
CC1CN(CCOc2ccc([N+](=O)[O-])cc2)CC(C)O1 (configuration not stated)
→ -0.5, 117.2, i, 0.98, -4.7, 5.3, 134.0
COc1cc(CNC(C)(C)CO)cc(Br)c1OCc1ccc(Cl)cc1
→ -0.4, 91.2, i, 0.6, -3.6, 13.7, 103.9
OCC1(CO)COC(c2ccccc2)=N1
→ ., 98.3, i, 0.97, -1.4, -13.3, 116.7
CCCNc1nc2c(c(=O)[nH]c(=O)n2C)n1CCCc1ccccc1
→ -2.1, 102.1, i, 0.9, 4.4, -63.6, 91.6
CN(C)CC(C)(C)CNC(C(=O)Nc1ccc(Cl)cc1C(F)(F)F)c1ccccc1 (configuration not stated)
→ ., 99.9, i, 0.87, -4.3, ., .
Cc1ccc(C)c(-c2cc(C(=O)NCc3cccs3)c3ccccc3n2)c1
→ -0.4, 89.5, i, 0.84, 2.8, -8.6, 66.4
CC(C)CCC1CC(CSC(=N)N)OC1=O (configuration not stated)
→ -1.1, 105.3, i, 1, -6.6, 20.0, 125.7
CCCc1nnc(SCC(=O)N2CCCC2)n1Cc1ccco1
→ ., 104.1, i, 1.01, -4.5, ., .
COCCNC(=S)Nc1cccc2cnccc12
→ ., 70.8, i, 0.69, 0.3, ., .
COc1ccc2nc3sc(C(=O)NCc4cccs4)c(N)c3cc2c1
→ 1.1, 100.6, i, 1.1, -11.4, 0.0, 86.0
CNc1oc(-c2ccc(Cl)cc2)nc1C#N
→ -0.2, 72.7, i, 0.88, 2.0, ., .
Cc1ccccc1C(=O)NC(NC(=O)c1ccccc1C)c1cccc([N+](=O)[O-])c1
→ -0.4, 104.7, i, 0.97, 2.8, 6.7, 105.2
CCCN(CCC)CCCNC(=O)C1c2cc(OC)c(OC)cc2C(=O)N(C)C1c1cccnc1 (configuration not stated)
→ ., 101.7, i, 0.94, -3.3, -53.3, 79.1
CC1Cc2ccccc2N1C(=O)c1ccnc(C(C)(C)C)c1 (configuration not stated)
→ -1.6, 93.0, i, 1.31, -0.2, -23.8, 151.2
COc1ccc(-c2nc3ccncc3[nH]2)cc1OC
→ -0.8, 113.5, i, 0.94, -4.5, -5.7, 157.3
CCC(C)NC(=O)C1CN(S(=O)(=O)c2ccccc2)CCN1S(=O)(=O)c1ccccc1 (configuration not stated)
→ -0.2, 104.4, i, 0.97, -3.0, -21.4, 107.1
O=C(Nc1cccc(Cl)c1)c1csc(-c2ccccc2)n1
→ -1.8, 96.0, ., ., -2.5, 38.7, 111.5
Cc1c(C(=O)N2CCC(C)CC2)sc2ncnc(N(C)c3ccccc3)c12
→ -0.6, 100.8, i, 1.05, -3.9, -13.9, 76.7
COCCN=C1Sc2nc3c(C)cccc3cc2CN1Cc1ccco1
→ -0.5, 102.9, i, 0.9, 5.5, -34.3, 130.7
Cc1cc(-c2ccco2)n(CC(=O)NCc2ccco2)n1
→ -2.5, 100.5, i, 0.74, -6.5, ., .
Cc1ccc(N2CC(C(=O)Nc3ccccn3)CC2=O)cc1 (configuration not stated)
→ -3.1, 100.8, i, 0.857, -1.1, -13.8, 147.7
OCC1(Cc2ccc(Cl)cc2)CCN(Cc2ccccc2F)CC1
→ ., 98.2, i, 1.02, -8.8, ., .
Cc1nnc(SCC(=O)Nc2c(C)n(C)n(-c3ccccc3)c2=O)n1Cc1ccccc1
→ ., 100.7, i, 1.03, 0.1, ., .
Cn1c(=NC(=O)COc2ccccc2)sc2cc(F)cc(F)c21
→ ., 106.4, i, 0.89, ., ., .
Cc1cnc(C(=O)OCC(=O)N(Cc2ccccc2)C(C)C)cn1
→ ., 98.7, i, 0.91, -4.3, ., .
CCN1C(=O)C(CC(=O)Nc2ccc(F)cc2)N(CCCN2CCN(c3ccc(F)cc3)CC2)C1=S (configuration not stated)
→ ., 104.0, i, 0.83, -2.4, -64.3, 150.1
COc1ccc(CNC(=O)c2ccccc2C(=O)O)cc1
→ -0.9, 107.6, i, 0.99, 2.4, ., .
COc1ccc(C(=O)NC(C(=O)NCc2ccccn2)C(C)C)cc1 (configuration not stated)
→ -0.7, 113.3, i, 0.76, -6.2, ., .
O=C(COc1ccc(Cl)cc1)N(Cc1ccccc1)c1ccccn1
→ -1.1, 100.5, i, 0.83, 10.8, 3.3, 126.7
CCCCCCSc1nc(O)c(C2OC(=O)c3c2ccc(OC)c3OC)c(=O)n1-c1ccccc1 (configuration not stated)
→ -2.8, 75.0, i, 0.89, -3.1, 13.3, 68.2
CCOc1ccccc1NC=C1C(=O)OC(C)(C)OC1=O
→ 0.8, 102.8, i, 0.95, -4.3, -16.7, 92.8
O=C(NC1CC1)c1cccc(Nc2ccc(-c3ccc4c(c3)OCCO4)nn2)c1
→ -1.1, 83.6, i, 0.72, -5.4, 56.2, 73.8
CCOC(=O)C1(Cc2ccccc2C(F)(F)F)CCN(Cc2ccc(COC)o2)CC1
→ ., 94.3, i, 1.02, -0.7, ., .
COc1ccc(-c2cc3ccccc3n2CC(O)CN2CCOCC2)cc1 (configuration not stated)
→ -0.8, 102.6, i, 0.9, -7.4, -6.2, 76.1
CN(C)c1oc(COc2ccccc2F)nc1C#N
→ -0.3, 98.2, i, 1.05, -7.1, 0.0, 91.1
O=C1CN(C(=O)COC(=O)/C=C/c2ccc(OC(F)F)cc2)c2ccccc2N1
→ -1.6, 103.0, i, 1, -9.7, ., .
O=C(NC(c1ccc(Cl)cc1)c1cc(Cl)c2cccnc2c1O)c1cccnc1 (configuration not stated)
→ -1.7, 32.9, i, 0.84, -3.2, -346.7, 12.1
Cc1ccc(C)c(NC2=NCC(=O)N2C2CCCCC2)c1
→ -2.0, 36.3, i, 1.04, -10.1, 53.3, 163.7
COc1ccc(C(C)=O)cc1COC(=O)Cn1cnc2ccccc2c1=O
→ -2.4, 102.3, i, 0.73, -6.0, ., .
CCn1nc(NC(=O)c2cccs2)c2cc3ccccc3nc21
→ ., 98.4, i, 0.78, 0.8, -46.7, 73.5
COc1ccc(-n2nc(N)c3c(=O)oc(N(C)C)nc32)cc1
→ -2.8, 93.2, i, 0.68, -5.2, -30.0, 75.2
Cn1c(CNC(=O)c2ccccc2F)nnc1SCCOc1ccccc1
→ ., 99.9, i, 0.95, 1.6, ., .
Cc1ccc(S(=O)(=O)CCc2nc3ccccc3s2)cc1
→ -1.9, 104.2, i, 0.97, -9.5, -89.7, 106.4
COc1ccc(CN2C(=O)CN=C2Nc2ccc(C)cc2C)cc1
→ -2.2, 100.3, i, 1.03, 2.5, 60.0, 123.4

Arranged by value in GALR2 agonist (lowest first): 6 of the compounds above
mol,GALR2 agonist,RGS16-Gao,HSV replic up,HSV replic up primary fold,PKD1 inh
COc1ccc(-n2nc(N)c3c(=O)oc(N(C)C)nc32)cc1,-2.8,93.2,i,0.68,-5.2
COc1ccc(CN2C(=O)CN=C2Nc2ccc(C)cc2C)cc1,-2.2,100.3,i,1.03,2.5
Cc1ccc(C)c(NC2=NCC(=O)N2C2CCCCC2)c1,-2.0,36.3,i,1.04,-10.1
Cc1ccc(S(=O)(=O)CCc2nc3ccccc3s2)cc1,-1.9,104.2,i,0.97,-9.5
COc1ccc(-c2cc3ccccc3n2CC(O)CN2CCOCC2)cc1 (configuration not stated),-0.8,102.6,i,0.9,-7.4
CN(C)c1oc(COc2ccccc2F)nc1C#N,-0.3,98.2,i,1.05,-7.1
